VDR inh: vitamin D3 receptor (human) inhibition | Potency, µM, for the others: max response, negative = inhibition, most hits filed as inhibitors | P11473 | 400,000 compounds, 0.93% hits | VDR-SRC2-3 peptide fluorescence polarization, 2 h; active means well fitted inhibition curve with a large enough effect; inconclusive means small, poorly fitted or top-dose-only effect, or another doubt; inactive means no such curve, though single readings can be large or run the other way; further: series mostly up to about 120 µM
Target sequence (P11473 whole entry, looked up): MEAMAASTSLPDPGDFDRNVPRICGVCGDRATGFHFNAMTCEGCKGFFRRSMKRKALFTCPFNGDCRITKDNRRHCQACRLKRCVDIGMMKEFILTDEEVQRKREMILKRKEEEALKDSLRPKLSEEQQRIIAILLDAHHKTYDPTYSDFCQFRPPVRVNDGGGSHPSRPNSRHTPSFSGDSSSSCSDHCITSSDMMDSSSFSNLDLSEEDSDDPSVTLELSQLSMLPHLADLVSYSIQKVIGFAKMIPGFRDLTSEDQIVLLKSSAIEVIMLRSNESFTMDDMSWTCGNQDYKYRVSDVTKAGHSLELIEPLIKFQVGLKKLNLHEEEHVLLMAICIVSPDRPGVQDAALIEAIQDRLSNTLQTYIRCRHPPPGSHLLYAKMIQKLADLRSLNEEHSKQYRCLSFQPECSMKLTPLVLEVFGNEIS
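Inhibition of the VDR/SRC2-3 peptide interaction is quantified by fluorescence polarization. Compounds (23 nl, pintool) incubate with the reagents for 2 hours at ambient room temperature.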
Starred values were filed as active, the others as inactive; & = joins results of further samples. On the % scale 0 is the no-effect control and ±100 the full control effect; potency means the concentration at half of the fitted maximal effect. Only part of the results is shown. The share of hits here may be higher or lower than overall.

What do the screens show for `COc1cc(C(=O)NC2CCN(C)CC2)ccc1Nc1ncc2c(n1)N(Cc1ccccc1)CCC(=O)N2C`?
VDR inh: 8.9%

How did Cc1nn(-c2ccc3ccccc3c2)c(=O)c2ccccc12 do in these assays?
VDR inh: -4.9%

Results for COc1cccc(/C=C/C(=O)Nc2ccc3nc(N4CCN(C)CC4)cc(C)c3c2)c1OC ?
VDR inh: 19.2%

Results for CCOc1ccc(NC(=O)CSc2nc3c(oc4ccccc43)c(=O)n2CCOC)cc1 ?
VDR inh: -0.1%

How did CC(=O)Nc1cccc(NC(=O)c2ccc([N+](=O)[O-])cc2Cl)c1 do in these assays?
VDR inh: -17.2%

Results for COc1cc(C2CC(=O)Nc3cc(C)c(C)cc32)cc(OC)c1OC (centres undefined) ?
VDR inh: -7.5%

How did O=C(O)CSC1CC(=O)N(c2ccc(Cl)cc2)C1=O (centres undefined) do in these assays?
VDR inh: -5.5%

What do the screens show for `CN(C)c1nnnn1-c1ccc(Oc2ncc(C(F)(F)F)cc2Cl)cc1`?
VDR inh: 4.7%

How did Cc1cccc(C)c1Nc1c(-c2cccs2)nc2ncccn12 do in these assays?
VDR inh: inconclusive

What do the screens show for `COc1cc(CNCCN2CCOCC2)ccc1OCc1ccc(Cl)cc1`?
VDR inh: -1.3%

How did O=C(Nc1cccc(Cl)c1N1CCCC1)c1ccco1 do in these assays?
VDR inh: -8.7%

What do the screens show for `COC(=O)CC1Oc2ccccc2-n2cc(-c3ccc(C)cc3)nc21` (centres undefined)?
VDR inh: 3.6%

What do the screens show for `CC1CCN(S(=O)(=O)c2cccc(C(=O)NNC(=O)c3ccco3)c2)CC1`?
VDR inh: -10.6%

What do the screens show for `CCc1ccccc1NC(=O)CSc1nnc(C2CC2)n1CC1CCCO1` (centres undefined)?
VDR inh: 1.9%

How did COC(=O)c1nc(NC2=NCCCCC2)n[nH]1 do in these assays?
VDR inh: -4.7%

Results for O=c1c2ccc([N+](=O)[O-])cc2ncn1CCOc1ccc(Cl)cc1 ?
VDR inh: -13.0%

Results for CCCCCC(=O)N1CCN(CCN=CC2=C(O)CC(c3ccco3)CC2=O)CC1 (centres undefined) ?
VDR inh: -3.9%

How did Cc1ccc(-c2nc(C)c(CCNC(=O)C(=O)Nc3cc(C)ccc3C)s2)cc1 do in these assays?
VDR inh: 7.2%

Results for Clc1nc(Cl)nc(N(c2ccccc2)c2ccccc2)n1 ?
VDR inh: 10.0%

How did C=CCn1c(C)nnc1SCC(=O)Nc1cc(S(=O)(=O)N2CCCC2)ccc1Cl do in these assays?
VDR inh: -6.1%

What do the screens show for `COc1ccccc1N1CCN(c2ncnc3c2cnn3C)CC1`?
VDR inh: 2.6%

How did CCOc1ccc(C2CC(=O)c3c([nH]c(C(=O)OCCOc4ccccc4)c3C)C2)cc1 (centres undefined) do in these assays?
VDR inh: 10.2%

Results for O=C(Nc1ccc(F)cc1)Nc1ccc(S(=O)(=O)N2CCCC2)cc1 ?
VDR inh: 9.3%

How did CCOC(=O)c1cccc(NC(=O)c2cnc3sc(N4CCOCC4)nn3c2=O)c1 do in these assays?
VDR inh: 4.5%

How did COc1ccc(C2(CNC(=O)c3cc(OC)c(OC)c(OC)c3)CCCC2)cc1OC do in these assays?
VDR inh: 3.5%

What do the screens show for `COc1ccc(OC)c(-c2cc(C(=O)N3CCN(c4ccccc4)CC3)no2)c1`?
VDR inh: 4.2%

What do the screens show for `CSc1ccccc1C(=O)N1CCCC(CNC(=O)c2ccc(F)cc2)C1` (centres undefined)?
VDR inh: -13.5%

What do the screens show for `Cc1nn(-c2ccccc2)c(C)c1/C=N/n1c(-c2ccc(Cl)cc2)n[nH]c1=S`?
VDR inh: -7.9%

What do the screens show for `CCCOc1ccc(N2C(=O)CC(N(C(=O)c3ccco3)c3ccc(OCCC)cc3)C2=O)cc1` (centres undefined)?
VDR inh: 6.4%

What do the screens show for `O=C1Cc2c([nH]c3ccc(Br)cc23)-c2ccccc2N1`?
VDR inh: inconclusive

How did CCn1c(=O)cc(SCC(=O)NCc2ccccn2)c2ccccc21 do in these assays?
VDR inh: -0.1%

What do the screens show for `CCN(CCO)Cc1csc2c(Br)cccc12`?
VDR inh: -3.6%

What do the screens show for `CCOC(=O)c1nccnc1C(=O)Nc1cccc(C(F)(F)F)c1`?
VDR inh: -2.3%

Results for N#Cc1c(N)nc(-c2ccccc2)nc1-c1ccccc1 ?
VDR inh: 11.6%

Results for Oc1ccc2ccccc2c1N=Nc1ccccn1 ?
VDR inh: -17.3%

Results for Cc1cc(C)cc(NC(=S)N2CCN(Cc3ccccc3)CC2)c1 ?
VDR inh: 7.3%

How did CCOc1ccc(-n2c(SC(C)C(=O)OC)nc3c([nH]c4ccccc43)c2=O)cc1 (centres undefined) do in these assays?
VDR inh: 10.0%

What do the screens show for `COC(=O)c1c(NC(=O)CCCOc2ccccc2C)sc2c1CCC2`?
VDR inh: -24.5%

Results for Cc1csc(SCC(=O)O)n1 ?
VDR inh: 2.3%

What do the screens show for `Cc1ccc(O)c(NC(=O)c2cc(-c3ccccc3O)no2)c1`?
VDR inh: 1.3%

Results for CCOc1ccc(-c2n[nH]c3c2C(c2ccccc2OC)N(c2ccc(Br)cc2)C3=O)cc1 (centres undefined) ?
VDR inh: -27.0%

What do the screens show for `Cc1ccc(C(=O)N2CCC3(CC2)Oc2ccc(F)cc2C(=O)C32CC(c3ccc(Cl)cc3)=NO2)s1` (centres undefined)?
VDR inh: -0.6%

What do the screens show for `CNC(C)C#Cc1ccc2oc3cc(C)c(C)cc3c(=O)c2c1` (centres undefined)?
VDR inh: -7.7%

How did Cc1ccc(S(=O)(=O)NC2(C(F)(F)F)NC(=O)N(c3ccc(F)cc3)C2=O)cc1 (centres undefined) do in these assays?
VDR inh: 13.3%&-16.9%

What do the screens show for `NC(=O)NC(Cc1ccccc1)C(=O)Nc1ccc(S(N)(=O)=O)cc1` (centres undefined)?
VDR inh: 6.3%

What do the screens show for `COC(=O)CSc1nc(NC#N)nc(NC(C)C)n1`?
VDR inh: 5.5%

How did CCN(CC#CCC(O)(c1ccccc1)C1CCCC1)C(C)C (centres undefined) do in these assays?
VDR inh: -4.9%

What do the screens show for `COc1cccc(Nc2ncc3nc(CCc4ccccc4)c(=O)n(C[C@H]4CCCO4)c3n2)c1`?
VDR inh: 6.7%

What do the screens show for `O=C1c2[nH]nc(-c3ccccc3O)c2C(c2ccccc2F)N1Cc1cccnc1` (centres undefined)?
VDR inh: 9.6%

What do the screens show for `CCNc1nc2[nH]c(=O)c3c(c2s1)OC(N)=C(C#N)C3c1ccc(C)cc1` (centres undefined)?
VDR inh: -2.9%

Results for CC(C)c1ccc(NC(=O)C(NS(=O)(=O)c2ccc3c(c2)CCC(=O)N3)c2ccccc2)cc1 (centres undefined) ?
VDR inh: 11.7%

How did COc1cccc(NC(=O)c2cc(=O)c3ccccc3o2)c1 do in these assays?
VDR inh: -0.9%

What do the screens show for `c1ccc2c(c1)ncn2CCn1cnc2ccccc21`?
VDR inh: 0.4%

Results for C/C(=N/NC(=O)c1nnn(-c2nonc2N)c1-c1ccccc1)c1ccc2c(c1)OCO2 ?
VDR inh: -23.6%

How did O=c1n(-c2ccccc2)c(=O)n(Cc2ccccn2)n1Cc1ccccn1 do in these assays?
VDR inh: 21.3%

Results for Cc1ccc(C)c(OCCNc2ncccc2[N+](=O)[O-])c1 ?
VDR inh: -2.2%

How did O=C(CC12CC3CC(CC(C3)C1)C2)Nc1ccc(C(=O)O)cc1 do in these assays?
VDR inh: -2.0%

How did COc1ccc(CCN(C)C(=O)c2cc(-c3ccccc3)nc3ccccc23)cc1OC do in these assays?
VDR inh: -26.3%

What do the screens show for `N#CC1=C(N)Oc2cc(N)ccc2C1c1ccsc1` (centres undefined)?
VDR inh: -14.6%

Results for O=C(COC(=O)C12CC3CC(CC(O)(C3)C1)C2)Nc1cccc(Br)c1 ?
VDR inh: 8.7%

Brought forward from above: 6 entries; new compounds follow.
How did O=c1n(-c2ccccc2)c(=O)n(Cc2ccccn2)n1Cc1ccccn1 do in these assays?
VDR inh: 21.3%

Results for Cc1ccc(C)c(OCCNc2ncccc2[N+](=O)[O-])c1 ?
VDR inh: -2.2%

How did O=C(CC12CC3CC(CC(C3)C1)C2)Nc1ccc(C(=O)O)cc1 do in these assays?
VDR inh: -2.0%

How did COc1ccc(CCN(C)C(=O)c2cc(-c3ccccc3)nc3ccccc23)cc1OC do in these assays?
VDR inh: -26.3%

What do the screens show for `N#CC1=C(N)Oc2cc(N)ccc2C1c1ccsc1` (centres undefined)?
VDR inh: -14.6%

Results for O=C(COC(=O)C12CC3CC(CC(O)(C3)C1)C2)Nc1cccc(Br)c1 ?
VDR inh: 8.7%

How did O=[N+]([O-])c1cc2c(c(CSc3ncccn3)c1)OCOC2 do in these assays?
VDR inh: -4.5%

What do the screens show for `c1ccc(-c2cn(-c3ccccc3)c3ncnc(NCCCN4CCOCC4)c23)cc1`?
VDR inh: -5.1%

What do the screens show for `COc1ccc(C)cc1NS(=O)(=O)c1c(C)nc2sc(C)cn2c1=O`?
VDR inh: 0.3%

How did CC(=O)N1c2ccc(S(=O)(=O)N3c4ccccc4CC3C)cc2CC1C (centres undefined) do in these assays?
VDR inh: -15.7%

Results for CCOc1ccc(CNC(=O)c2ccc3c(c2)nc2n3CCC(C)C2)cc1OC (centres undefined) ?
VDR inh: 5.9%

Results for N#CCCNc1c(Cl)cc(Cl)cc1C(=O)O ?
VDR inh: 0.7%

Results for CN1CCN(Cc2ccc(-c3ccc(Cl)cc3)o2)CC1 ?
VDR inh: -7.3%

What do the screens show for `O=c1c2cccc3c2c(nn1-c1ccccc1)-c1ccccc1-3`?
VDR inh: -4.6%

What do the screens show for `CN1OC(Cn2cc(C#N)c(=O)n(C)c2=O)CC1c1ccccc1` (centres undefined)?
VDR inh: 2.8%

What do the screens show for `COc1ccc(/C=C(\NC(=O)c2ccc(OC)cc2)C(=O)NC(CCSC)C(=O)O)cc1` (centres undefined)?
VDR inh: 8.5%

What do the screens show for `COc1ccc(C(=O)Nc2cc(S(=O)(=O)c3ccc(Cl)cc3)c(O)c(C)c2C)cc1`?
VDR inh: -7.4%

Results for Cc1cc(C(=O)NCc2cccc(Cl)c2)c2ccccc2n1 ?
VDR inh: 10.7%

What do the screens show for `CCc1nnc(NC(=O)C(NC(=O)c2ccccc2Cl)C(C)C)s1` (centres undefined)?
VDR inh: -0.1%

Results for O=C(O)[C@H]1CCCN1S(=O)(=O)c1cccc2cccnc12 ?
VDR inh: 4.0%

What do the screens show for `O=[N+]([O-])c1cccc(/C=N/n2c(C3CCCCC3)n[nH]c2=S)c1`?
VDR inh: -4.9%

What do the screens show for `Cc1c(C(=O)NN)sc(=S)n1C`?
VDR inh: -4.2%

Results for Cc1ccc(C(=O)Nc2ccccc2C(=O)O)cc1S(=O)(=O)Nc1ccc(Br)cc1 ?
VDR inh: inconclusive

How did COc1cccc(CN2CCCC(C(=O)N3CCCCC3)C2)c1 (centres undefined) do in these assays?
VDR inh: 18.1%

What do the screens show for `CC(=O)C[C@@H](O)CC(=O)[C@@H]1OC(=O)[C@H](C)C/C=C\Cc2ccccc21`?
VDR inh: 0.9%

What do the screens show for `COc1ncnc2c1ncn2CC1COC(C)(C)O1` (centres undefined)?
VDR inh: -10.0%

Results for CCC(COC(=O)c1ccccc1)Oc1cc(NCc2ccccc2)c2ncn(C(C)C)c2c1 (centres undefined) ?
VDR inh: 79.4µM*

Results for Cc1cc(C)cc(N(CC(=O)NCc2cccnc2)S(C)(=O)=O)c1 ?
VDR inh: -13.7%

What do the screens show for `CC(=O)Nc1nonc1-c1nc2ccccc2n1CCC#N`?
VDR inh: 12.9%

What do the screens show for `CC(C)CNC(=S)N1CCC(NC(=O)C23CC4CC(CC(C4)C2)C3)CC1`?
VDR inh: 20.1%

What do the screens show for `O=C(N/N=C/c1coc2ccccc2c1=O)c1cc2ccccc2o1`?
VDR inh: -22.9%

Results for CC(C)(C)OC(=O)Nc1ncnc2c1ncn2C1OC(CO)C2OC(C)(C)OC21 (centres undefined) ?
VDR inh: -21.6%

What do the screens show for `NS(=O)(=O)c1ccc(Oc2ccc(S(N)(=O)=O)cc2)cc1`?
VDR inh: -7.9%

Results for Cc1ccc(C(=S)N2CCN(Cc3ccccc3)CC2)cc1 ?
VDR inh: inconclusive

What do the screens show for `CC(C)C(c1nnnn1Cc1ccc(F)cc1)N1CCN(C2CCCCC2)CC1` (centres undefined)?
VDR inh: -3.4%

How did O=C1c2ccccc2C(=O)N1Cc1nc(-c2ccccc2)no1 do in these assays?
VDR inh: -5.1%

Results for Nc1nc(NCCCN2CCOCC2)nc(Nc2ccccc2F)c1[N+](=O)[O-] ?
VDR inh: 11.6%

How did CC(C)(C)c1cc[n+](-c2[nH]c(=O)sc2/C=N/N=C(\[O-])c2cccnc2)cc1 do in these assays?
VDR inh: -13.3%

Results for Cc1ccc(Cn2c(C)c(CNCC(C)c3ccccc3)c(C(=O)O)c2C)cc1 (centres undefined) ?
VDR inh: 13.1%

What do the screens show for `Cc1cc(C)n(-c2ccc(C(=O)O)cc2)n1`?
VDR inh: -10.9%

What do the screens show for `Cc1cc(C)n(CC(O)COc2ccccc2C(=O)Nc2ccccc2)n1` (centres undefined)?
VDR inh: -2.1%

Results for CC(=O)NC1CC2CCCC(C1)N2C(=O)Nc1ccccc1 (centres undefined) ?
VDR inh: 13.8%

How did COc1cc(OC)cc(C(=O)Nc2ccc(C(=O)c3ccncc3)cc2)c1 do in these assays?
VDR inh: 4.6%

In the list so far, these contain bromine.
What do the screens show for `O=C1Cc2c([nH]c3ccc(Br)cc23)-c2ccccc2N1`?
VDR inh: inconclusive

What do the screens show for `CCN(CCO)Cc1csc2c(Br)cccc12`?
VDR inh: -3.6%

Results for CCOc1ccc(-c2n[nH]c3c2C(c2ccccc2OC)N(c2ccc(Br)cc2)C3=O)cc1 (centres undefined) ?
VDR inh: -27.0%

Results for O=C(COC(=O)C12CC3CC(CC(O)(C3)C1)C2)Nc1cccc(Br)c1 ?
VDR inh: 8.7%

Results for Cc1ccc(C(=O)Nc2ccccc2C(=O)O)cc1S(=O)(=O)Nc1ccc(Br)cc1 ?
VDR inh: inconclusive
